Autofluor counter: flagged as autofluorescent in microsphere protease counterscreen. compound autofluorescence counterscreen, microsphere flow cytometry; active compounds read high. fluorescence intensity (no concentration beside the values). hit rate 3.1% among 360,000;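 active means at least 3 SD above the mean of all compounds, about 16000 in these data; inconclusive means too few beads counted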;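 further: 100 nL of 1 mM stock went into each well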
BJeLR viability: BJeLR cell viability loss. BJeLR (HRASV12) viability, CellTiter-Glo ATP luminescence, 48 h; reference of the scale not given here. inhibition, % (test concentration not listed). hit rate 0.17% among 300,000. AID 1554;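 active means replicate mean above 50%; inconclusive means above 50% but judged a plate artefact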;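 further: 50 nL library stock added to about 25 µL; numbers are from one replicate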
ugtP null kill: growth inhibition of S. aureus ugtP deletion strain; S. aureus RN4220 ugtP deletion, OD600 growth, 16 h; some inactives read as strong as hits; growth inhibition, % (no concentration beside the values); hit rate 0.54% among 330,000;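 active means z-score under -3 and OD600 up to 0.15 on both plates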;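 further: plate controls were untreated wells for no effect and antibiotic for full effect; wells of about 80 µL received 100 nL stock; the first replicate is given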
PrP UTR inh: suppresses PrP 5' UTR mRNA reporter expression; cell-based PrP 5' UTR mRNA reporter, plate reader; inhibition, % (no concentration beside the values); hit rate 0.35% among 340,000;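 active means every replicate at 50% or more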;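 further: 0 = median of the neutral control wells; tested in H4 reporter cells; numbers are from one replicate; inactives centre near -14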
Mtb hypoxia inh: Mtb hypoxia fluorescent reporter inhibition; M. tuberculosis hypoxia-regulated fluorescent reporter, fluorescence; fluorescence inhibition, % (concentration not given with the values); hit rate 0.1% among 300,000; AID 1159583;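 active means 35 to 45% if threefold the growth effect, above 45% if 1.5-fold the growth effect; inactive means the rest, general growth blockers included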;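 further: wells of about 50 µL received 100 nL stock; 0% = vehicle wells and 100% = reference inhibitor wells; whole bacteria with a GFP reporter of the hypoxia response; strong numbers were not always called active; many hits fall short of the cut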
RN4220 kill: kills Staphylococcus aureus RN4220. S. aureus RN4220 growth, OD600, 16 h. inhibition, % (test concentration not listed). hit rate 0.33% among 330,000;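 active means z-score of -3 or lower and OD600 up to 0.18 on both plates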;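 further: plate controls were untreated cells for no effect and reference antibiotic for full effect; stock transfer was 100 nL into about 80 µL; one replicate is shown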
Mtb hypoxia inh growth: second read-out of Mtb hypoxia inh, no call of its own (marks repeat the call); growth inhibition, %; measured here: M. tuberculosis growth (absorbance);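 0% = vehicle and 100% = reference antibiotic; read after six days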
* marks the source's active call; other numbers are inactive results; ? = inconclusive; · = not tested or not shown; & = joins results of further samples.

SMILES	Autofluor counter	BJeLR viability	ugtP null kill	PrP UTR inh	Mtb hypoxia inh	Mtb hypoxia inh growth	RN4220 kill
COc1ccc(CNC(=O)C2CCC(CNc3c(N4CCOCC4)c(=O)c3=O)CC2)cc1 (stereo unspecified)	3631&5553	2	4&6	-30&-22	-15&-13	1&2	2.4&2.5
COc1ccc(C2CC=C(C(=O)O)C(c3cccc(Cl)c3)N2S(=O)(=O)c2ccc(C)cc2)cc1OC (stereo unspecified)	·	·	29	·	13	8	18
CCN(CC)CCNC(=O)C(=O)NCC1OCCN1S(=O)(=O)c1ccc([N+](=O)[O-])cc1 (stereo unspecified)	2082	12	-2	-3	7	4	9.2
COc1cccc(CNC(=O)Cn2ccc3cc(S(=O)(=O)N4CCCCCC4)ccc32)c1	2232	2	10	-1	-1	-7	0.1
COC(=O)c1c(CSc2ccc(Cl)cc2)noc1C(=O)NCc1ccco1	4145	-6	-4	-8	14	3	-14
S=C(Nc1ccccc1Cl)NC1CCCCCC1	3759	-1	1	-35	7	-1	2.7
O=C(CSc1ncnc2c1oc1ccccc12)Nc1ccccc1C(F)(F)F	5774	-8	11	2	7	1	5.2
O=C1NC(=O)N(CCC2=CCCCC2)C(=O)/C1=C/c1ccc(O)cc1	2262	7	3	-21	6	-4	0.6
CCC1CCCCN1C(=O)COC(=O)c1cc(=O)[nH]c2ccccc12 (stereo unspecified)	·	·	4	-20	10	-2	4.9
c1cncc(Nc2nc(-c3cccnc3)cs2)c1	11365	4	44	-54	-1	4	5.7
O=S(=O)(c1ccc(NCC2CCCCC2)nc1)N1CCOCC1	9785	-1	-3	-3	-14	-3	-1.2
CCCOc1ccc(-c2c(C(=O)NN=Cc3ccccc3)nnn2-c2nonc2N)cc1	·	·	5	·	0	9	3.6
O=C(CN1C(=O)NC2(CCCc3ccccc32)C1=O)NCCc1ccc(F)cc1 (stereo unspecified)	3436	·	8	-21	8	10	4.7
O=C(COc1ccccc1F)NNC(=O)c1cccc(-n2cccc2)c1	5899	-8	3	4	4	16	-2.7
COc1ccc(CNC(=O)CC2C(=O)N(Cc3ccccc3)CC2Cc2ccccc2)cc1 (stereo unspecified)	·	·	13	·	4	6	6.9
Cn1cc(CN2CC3C[C@@H]4CC2C[C@H](C3)C4)c(-c2ccc3c(c2)OCCO3)n1	4106	2	15	-14	11	12	4.8
CCOC(=O)CN(C(=O)CSc1nnc(CNc2ccc(F)cc2)n1CC)c1ccc(F)cc1	3712	0	14	-1	·	·	-1.2
Cc1ccc(-n2nc(C)c(NC(=O)COC(=O)c3ccccc3NCCO)c2C)cc1	?	-2	4	-7	-5	6	-2.7
O=C(CSc1n[nH]c(-c2ccccc2)n1)Nc1ccc(F)cc1F	6358	2	-5	-5	-3	6	4.9
Cc1nnc(NN=Cc2ccc([N+](=O)[O-])cc2)n1N	·	·	4	·	3	8	8.1
Cc1ccccc1CCN(C(=O)c1csnn1)C(C(=O)NC1CCCC1)c1ccncc1 (stereo unspecified)	2935	15	-2	-16	-4	-10	3.5
O=C(O)CCC(=O)Nc1ccccc1Oc1ccccc1	4868	8	10	-26	10	-10	1.4
CC(=O)c1c(C(C)=O)c(C)n(-c2cccc([N+](=O)[O-])c2)c1C	1961	6	6	-4	2	4	5.2
NS(=O)(=O)c1ccc(CCNC(=O)COC(=O)Cc2c(F)cccc2Cl)cc1	5703	4	6	-19	8	10	5.0
Cc1ccc(S(=O)(=O)N2CCN(Cc3csc(C)n3)CC2)cc1	5805	-1	6	-2	3	5	0.8
CCC(C)CCN1CCN=C1Nc1ccccc1 (stereo unspecified)	4139	·	0	-24	7	12	6.5
CC(C)[C@H](NC(=O)NC1CCN(Cc2ccccc2)CC1)C(=O)O	4767	12	1	-27	16	-2	5.1
Cc1ccc(OCCn2cc(/C=C(\C#N)C(=O)NCC3CCCO3)c3ccccc32)cc1C (stereo unspecified)	2577	-3	-16	-7	2	-2	8.6
COc1ccc(N(C(=O)c2cccnc2)S(=O)(=O)c2ccc(OC)c(OC)c2)cc1	6041	4	4	6	·	·	-2.7
Cc1c(NC(=S)NC(=O)c2cccc([N+](=O)[O-])c2)c(=O)n(-c2ccccc2)n1C	4518	-6	12	-4	3	-4	4.2
COc1cc(NC(=O)COc2cc(O)c3c(c2)OC(C)(C)CC3=O)cc(OC)c1OC	4737	15	-3	5	·	·	-0.4
CC1CCc2c(sc(NC(=O)Cn3nc(C(F)(F)F)c4c3CCCCC4)c2C#N)C1 (stereo unspecified)	12146	-10	-2	-17	7	4	4.9
Cc1ccc2c(c1)c1c(n2CC(O)Cn2ccnc2C)C(=O)CCC1 (stereo unspecified)	3024	-3	0	-12	13	8	-16
O=C(CSc1nnc(-c2ccc(F)cc2)o1)Nc1ccccc1N1CCOCC1	3524	1	-7	-33	·	·	-9.0
CC(C)c1ccc(OCC(=O)Nc2cccc3c2CCCC3)cc1	4356	-3	96*	-8	17	5	15
Cc1n[nH]c(=S)n1/N=C/c1ccc(Br)o1	2956	-1	·	-20	·	·	·
COc1ccccc1CNC(=O)CSc1ncc(C(=O)Nc2ccccc2)c(=O)n1C	5944	11	12	-16	9	5	0.6
O=S(=O)(NCc1ccc(F)cc1)c1cc(Br)ccc1Br	4374	·	18	-9	7	6	16
O=c1[nH]cnc2c1sc1nc3c(c(-c4ccc(Cl)cc4)c12)CCC3	2463	-1	-17	-7	·	·	-1.7
Cc1ccc(N(Cc2ccco2)C(=O)c2cccc(S(=O)(=O)N(C)C)c2)cc1	2809	-7	7	-4	10	9	7.9
COc1cc(C=NNC(=S)Nc2cccc(Cl)c2C)ccc1OCC(=O)N1CC(C)OC(C)C1 (stereo unspecified)	·	·	-14	·	-5	-2	-2.1
Cc1ccc(F)cc1NCC(=O)Nc1ccc(Cl)cc1F	2503	6	2	2	10	6	6.5
CCN1C(=O)C2C(c3ccc(C)cc3)N3C(=O)N(c4ccc(C(F)(F)F)cc4)C(=O)[C@@]3(Cc3ccccc3)C2C1=O (stereo partly specified)	·	·	7	·	2	-8	11
CSc1nc(N)nc(-c2cccs2)c1C#N	3105	-5	-7	17	·	·	-1.0
O=C(CSc1nc2ccccc2[nH]1)N1CCCCC1	21788*	0	-1	-83	1	6	0.8
COc1ccc(NC(=O)Cn2c(=O)n(CC(=O)NCc3ccco3)c(=O)c3ccccc32)cc1	3560	4	-9	-27	1	1	-2.4
COc1c(Cl)cnn(-c2ccccc2)c1=O	2051	5	2	-15	5	3	4.7
CN(C)S(=O)(=O)N1CCN(CC(=O)Nc2ccc(Br)cc2)CC1	3760	-3	3	-11	4	12	3.0
CCN(C(=O)Cc1cccs1)c1nnc(-c2cc(OC)c(OC)c(OC)c2)s1	4932	-1	8	-29	·	·	1.1
CCn1c(SCC(=O)NN=C/C=C/c2ccco2)nnc1-c1ccccc1	·	·	-3	·	6	10	0.2

Shown comma-delimited: entries from further up
Structure,Autofluor counter,BJeLR viability,ugtP null kill,PrP UTR inh,Mtb hypoxia inh,Mtb hypoxia inh growth,RN4220 kill
COc1ccc(NC(=O)Cn2c(=O)n(CC(=O)NCc3ccco3)c(=O)c3ccccc32)cc1,3560,4,-9,-27,1,1,-2.4
COc1c(Cl)cnn(-c2ccccc2)c1=O,2051,5,2,-15,5,3,4.7
CN(C)S(=O)(=O)N1CCN(CC(=O)Nc2ccc(Br)cc2)CC1,3760,-3,3,-11,4,12,3.0

Arranged by SMILES length (lowest first): part of the list above.
SMILES	Autofluor counter	BJeLR viability	ugtP null kill	PrP UTR inh	Mtb hypoxia inh	Mtb hypoxia inh growth	RN4220 kill
CSc1nc(N)nc(-c2cccs2)c1C#N	3105	-5	-7	17	·	·	-1.0
CCn1c(SCC(=O)NN=C/C=C/c2ccco2)nnc1-c1ccccc1	·	·	-3	·	6	10	0.2
CCN1C(=O)C2C(c3ccc(C)cc3)N3C(=O)N(c4ccc(C(F)(F)F)cc4)C(=O)[C@@]3(Cc3ccccc3)C2C1=O (stereo partly specified)	·	·	7	·	2	-8	11

Continued:
SMILES	Autofluor counter	BJeLR viability	ugtP null kill	PrP UTR inh	Mtb hypoxia inh	Mtb hypoxia inh growth	RN4220 kill
CN(C)S(=O)(=O)c1cc(NC(=O)c2cc(=O)c3ccccc3o2)ccc1Cl	5368	-10	9	-15	6	10	1.4
Cc1ccc(N2C(=O)C3C4C=CC(CNC(=S)Nc5ccc(F)cc5)(O4)C3C2=O)cc1 (stereo unspecified)	10783	-11	6	-12	-4	3	5.4
Cc1ccn(C(=O)c2ccc(NC(=O)C3CCCCC3)cc2)n1	3737	2	-5	-5	·	·	-0.3
CN(c1ccc(Br)cc1)S(=O)(=O)c1ccc2[nH]cc(C(=O)NCCN3CCOCC3)c(=O)c2c1	5867	-1	2	10	8	16	4.8
COc1ccc(NC(C)=O)cc1S(=O)(=O)Nc1ccccc1C(=O)NCCc1ccccc1	3591	-13	9	-47	5	5	2.2
COc1ccc(C)cc1-n1nnnc1SCc1nc2ccccc2c(=O)[nH]1	3164	3	1	-10	-2	8	1.1
CCNC(=O)CN(CCc1ccccc1)S(=O)(=O)c1ccc(OC)cc1	16480*	-1	3	-18	0	2	3.9
CCCCNC(=O)NNC(=O)c1ccoc1C	4866	-1	0	-16	·	·	-2.3
CCOC(=O)CCCSc1nc2sc3c(c2c(=O)[nH]1)CCC3	?	6	4	-18	11	9	7.2
Cc1cc(C)nc(SC(C)CNS(=O)(=O)c2ccccc2)n1 (stereo unspecified)	3956	-3	10	-1	6	0	4.5
Cc1cccc(C(=O)NC2CC3CCCC(C2)N3Cc2ccccc2)c1 (stereo unspecified)	3032	0	5	-16	0	-1	3.8
CCn1c(=O)c(CCC(=O)NCCN2CCOCC2)c(C)c2c(C)nn(-c3cccc(C)c3)c21	5418	1	-4	-11	1	-7	0.5
Cc1ccc(N2C(=O)c3ccccc3C2Nc2ccc(S(=O)(=O)N3CCOCC3)cc2)nc1 (stereo unspecified)	6289	4	0	-28	-2	-3	-2.7
COc1ccc(NC(=O)CSc2nc3c(c(=O)n2-c2ccccc2OC)SCC3)cc1	6427	-3	6	-17	11	7	-3.9
COc1cccc(C(=O)Nc2ccc(N3CCN(S(C)(=O)=O)CC3)cc2)c1	12878	-8	6	-35	14	8	5.4
CCn1c2ccccc2c2cc(C=NNC(=O)c3ccncc3)ccc21	·	·	2	·	14	11	2.1
CCOc1ccc(NC(=O)NCc2ccco2)cc1	2086	0	-8	-32	0	4	0.3
O=S(=O)(Cc1ccccc1)Nc1ccc(S(=O)(=O)NCC2CCCO2)cc1 (stereo unspecified)	5211	2	0	-4	3	3	3.6
O=C(CN1C(=O)NC2(CCSC2)C1=O)N1CCN(c2ccc(F)cc2)CC1 (stereo unspecified)	3365	2	3	0	-18	-2	5.8
O=C(COC(=O)c1cc([N+](=O)[O-])ccc1N1CCOCC1)Nc1ccccc1OC(F)F	?	-1	-2	-13	-4	0	1.5
COc1cc(NC(=O)c2cc(C)no2)cc(OC)c1OC	4147	-1	3	-17	4	-3	0.8
COc1ccc(C2=NS(=O)(=O)N(C)C(C(=O)NC3CCCCC3)=C2)cc1	4679	5	7	3	2	-6	-3.1
NC(=O)CC1SC(N)=NC1=O (stereo unspecified)	2919	-2	4	-24	·	·	0.4
Nc1cc(OC(=O)c2cccs2)nn1S(=O)(=O)c1ccccc1	4375	4	6	-10	·	·	3.8
COc1ccc(/C=C2\Oc3cc(OCC(=O)N4CC(O)C[C@H]4C(=O)O)ccc3C2=O)c(OC)c1OC (stereo partly specified)	5518	-3	-2	-18	·	·	0.1
CCN1CCN(C2=C(NS(=O)(=O)c3ccc(Br)cc3)C(=O)c3ccccc3C2=O)CC1	5343	0	0	7	6	17	7.4
O=C(CSc1nnc(C2CC2)n1CC1CCCO1)Nc1ccc(Cl)cc1 (stereo unspecified)	5452	-1	2	-15	17	8	3.8
CN(N=Cc1cc(Cl)ccc1O)C1=NS(=O)(=O)c2ccccc21	·	·	2	·	3	-4	10
COc1ccc(C(=O)NCC(=O)NCc2ccncc2)cc1	3764	·	1	-28	6	0	1.2
CCCCN1CC(Cc2ccccc2)C(CC(=O)Nc2ccccc2)C1=O (stereo unspecified)	·	·	0	·	10	1	4.9
O=C(COc1ccc(Br)cc1)Nc1cc(S(=O)(=O)N2CCCCC2)ccc1N1CCCCC1	9746	-4	-11	-13	-2	-4	3.3
CCCN(CCC)C(=O)CC(c1ccccc1)c1ccco1 (stereo unspecified)	3622	-6	5	-12	2	4	5.4

Bioassay records as filed in PubChem.
